PABP polyA inh – PABP poly(A) RNA binding inhibitors, primary screen, biochemical, fluorescence polarization, uHTS. inhibition, % at 35 µM. 1% of 290,000 active. Polyadenylate-binding protein 1 (Homo sapiens), P11940;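 active = 50% or more with normal probe brightness, or confirmed in later tests; inconclusive = above 50% with abnormal brightness, or retests that disagree; inactive = below 50% or failed in later tests; about a fifth of its hits are not listed in these tables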;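 note: calls also rest on retests at 20 µM and on dose response follow-up; controls were probe without protein and protein plus probe with vehicle; some compounds called inactive have numbers as strong as hits; many hits fall short of the cut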
eIF4H inh – human eIF4H binding inhibitors, primary screen, translation initiation inhibitor project, biochemical, uHTS, fluorescence polarization | Eukaryotic translation initiation factor 4H (Homo sapiens), Q15056 | eIF4H fluorescence polarization binding assay | inhibition, % at 35 µM | 0.94% of 290,000 active | AID 2012, 2009;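 active = 50% or more with normal probe brightness, or confirmed in later tests; inconclusive = above 50% with abnormal brightness, or retests that disagree; inactive = below 50% or failed in later tests; about a fifth of its hits are not listed in these tables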;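 note: calls also rest on retests at 20 µM and on dose response follow-up; 0% = protein and probe with vehicle and 100% = probe without protein; strong numbers were not always called active; many hits fall short of the cut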
Env fusion inh – inhibitors of HIV-1 Env-driven cell-cell fusion, primary screen, HeLa-JRFL effector, CEM21 target cells, luciferase; inhibition, % at 12.3 µM; 1.1% of 360,000 active;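 active = mean replicate inhibition score of at least 50 and every replicate individually at or above 50; inconclusive = only one of the two criteria met; inactive = mean below 50 and not all replicates reaching 50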;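 note: 0% = plate neutral controls and 100% = maraviroc near 300 nM; one replicate is shown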
Yeast UUG start – modulators of yeast start codon fidelity, primary screen, whole organism, S. cerevisiae, single point, plate reader; S. cerevisiae UUG-firefly luciferase reporter, luminescence/redox ratio; activity score, % at 18.7 µM; 0.13% of 350,000 active; AID 602363, 2012;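 active = replicate mean at a twofold rise or more, about +100% in these data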;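 note: firefly luciferase made from a UUG start codon reports start codon fidelity; reporter light over untreated wells divided by growth signal over untreated wells; some hits fall short of that in this replicate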
CSC inhib – cancer stem cell viability inhibitors, primary screen, luminescence; cancer stem cell-like cells viability; inhibition, % at 7.5 µM; 1.1% of 300,000 active;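 active = mean at 75% or more and at least half the replicates too; inconclusive = mean and replicates disagree; tested in HMLE shEcad cells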;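 note: 0% = median of negative and 100% = median of positive control wells; the first replicate is given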
MT1-MMP act inh – blockers of MT1-MMP proenzyme processing, primary screen, HT1080 RFP-PRO-GFP cells, GFP/RFP fluorescence; GFP/RFP ratio change, % at 20 µM; GFP/RFP ratio fluorescence, overnight; percent of plate control window, DMSO zero; Matrix metalloproteinase-14 (Homo sapiens), P50281; 0.061% of 360,000 active; AID 651647, 2012;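 active = GFP/RFP ratio change of at least 30% with cell ATP level not reduced by more than half and red fluorescence within 50% of control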; note: strong numbers were not always called active
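Assay system – RFP-PRO-GFP reporter HT1080 cells · Compound dosing – single dose of 20 µM compound, 1% DMSO final · Incubation – overnight compound exposure at 37 °C · Measure – GFP/RFP fluorescence ratio · Benchmarks – DMSO wells and RFP-L50D-GFP cells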
Rce1 inh – yeast Rce1p protease inhibitors, primary screen, biochemical, fluorescence, cell-free homogeneous; yeast membranes, quenched prenylated peptide cleavage fluorescence; AID 2563, 2010; calls only; 0.27% of 290,000 active;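 active = fall in fluorescence gain of 50% or more versus controls, with final raw signal at or below 3038400; inconclusive = same 50% fall but final raw signal above 3038400; inactive = fall in fluorescence gain under 50%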;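 note: plate controls were neutral control wells for no effect and wells lacking membranes for full effect; tested at 10 µM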
Target sequence (Q03530 whole entry, looked up): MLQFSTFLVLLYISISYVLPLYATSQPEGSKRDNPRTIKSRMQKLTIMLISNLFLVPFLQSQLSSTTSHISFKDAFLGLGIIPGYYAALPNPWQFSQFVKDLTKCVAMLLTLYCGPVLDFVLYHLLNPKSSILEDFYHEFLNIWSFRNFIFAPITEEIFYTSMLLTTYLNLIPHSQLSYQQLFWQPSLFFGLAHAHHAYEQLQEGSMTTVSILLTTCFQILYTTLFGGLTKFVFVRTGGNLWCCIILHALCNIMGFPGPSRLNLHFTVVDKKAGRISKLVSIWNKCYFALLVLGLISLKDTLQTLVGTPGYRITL
MT1-MMP act inh RFP – recorded beside MT1-MMP act inh, whose call it bears; RFP signal change, %; measured here: RFP expression control read;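 0 = vehicle wells; hits needed this value within 50% of zero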
The depositor's hits bear a star; i = inactive; ? = inconclusive; . = no result given. Only part of the results is shown, so the mix of outcomes need not match the whole.

SMILES	PABP polyA inh	eIF4H inh	Env fusion inh	Yeast UUG start	CSC inhib	MT1-MMP act inh	MT1-MMP act inh RFP	Rce1 inh
Cc1nc2ncnn2c(C)c1CCC(=O)NC(C)CCc1ccco1 (centres undefined)	10	3	8	-4	-1	0	2	i
COc1ccc(NC(=O)CSc2nc3ccccc3c3nc4ccccc4n23)cc1	-12	-1	.	.	33	-1	1	.
CCn1cc(C(=O)NCC(=O)NCCCN2CCOCC2)c(=O)c2cc3c(cc21)OCO3	0	13	5	-14	-11	1	2	i
O=C(CSc1nnc(-c2ccncc2)o1)Nc1cccc(Cl)c1	.	.	1	-9	7	0	1	.
COc1cccc(NC(=S)N2CCN(Cc3ccccc3)CC2)c1	-21	-8	.	.	-19	1	4	i
Cc1cc(C)nc(NC(=O)c2ccc(OC(C)C)cc2)n1	-6	3	-19	-10	-4	2	-2	i
Cc1ccc(S(=O)(=O)CCC(=O)NCCC2=CCCCC2)cc1	.	.	.	-3	-10	4	4	i
COCCCNC(=O)c1c(N)n(/N=C/c2cccnc2)c2nc3ccccc3nc12	4	-7	.	-10	4	2	-6	i
O=C(OC(C(=O)NCc1ccc2c(c1)OCO2)c1ccncc1)c1ccc(Cl)nc1 (centres undefined)	-4	43	-1	-5	-6	3	6	i
CCCCNC(=O)CSc1nnc(Cc2ccc(Cl)c(Cl)c2)c(=O)[nH]1	21	-2	3	-6	-1	-2	5	i

Two of these compounds in another layout:
Values run as follows: PABP polyA inh, eIF4H inh, Env fusion inh, Yeast UUG start, CSC inhib, MT1-MMP act inh, MT1-MMP act inh RFP, Rce1 inh
> Cc1nc2ncnn2c(C)c1CCC(=O)NC(C)CCc1ccco1 (centres undefined)
 : 10, 3, 8, -4, -1, 0, 2, i
> COc1ccc(NC(=O)CSc2nc3ccccc3c3nc4ccccc4n23)cc1
 : -12, -1, ., ., 33, -1, 1, .

Next section.
SMILES	PABP polyA inh	eIF4H inh	Env fusion inh	Yeast UUG start	CSC inhib	MT1-MMP act inh	MT1-MMP act inh RFP	Rce1 inh
CCOc1cc(/C=C2/C(=N)N3OC(C)=CC3=NC2=O)ccc1OCCOc1ccccc1	22	37	-390	-14	-12	-4	1	i
NC(=O)c1oc2ccccc2c1NC(=O)c1ccco1	8	-5	-7	-4	-6	3	5	.
CCN1CCN(C(=O)c2ccc(OCC(=O)Nc3ccc(F)cc3)c(OC)c2)CC1	-3	1	-25	-44	0	0	-1	i
Cc1cc(C)c(C#N)c(SCc2nnc(-c3ccccc3[N+](=O)[O-])o2)n1	7	9	-175	.	.	-2	-4	i
COc1cc(C(=O)Oc2ccccc2/C=N/NC(=O)c2ccc(Cl)cc2)cc(OC)c1OC	9	-12	0	.	41	-7	-13	i
CC(NC(=O)c1ccco1)c1nc(-c2ccccc2)no1 (centres undefined)	5	0	8	15	-4	4	0	i
O=C(Nc1ccccc1Cl)c1ccccc1S(=O)(=O)c1ccccc1[N+](=O)[O-]	-7	-5	23	.	-28	-7	-4	i
CC1(C)CC(=O)CC(C)(C)N1OC(=O)c1ccccn1	-4	7	.	-11	17	0	3	i
Cc1ccc(Cc2cnc(NC(=O)c3cccs3)s2)cc1	-2	-4	.	-36	-23	9	-5	i
COc1ccc(S(=O)(=O)N2CCc3ccccc32)cc1C(=O)O	5	5	9	-13	-9	0	2	i
COc1cc(C)nc(N(C)C(C)=O)n1	2	-8	-9	-4	6	6	6	i
Cc1ccc(C(=O)NC2CCN(CC(=O)NC3CCC(C)CC3)CC2)cc1 (centres undefined)	-4	3	-23	-9	-9	-1	0	i
O=C1NC(=Nc2cccc([N+](=O)[O-])c2)SC1(CO)CO	-1	-12	-1	-12	-12	-4	3	i
COc1cccc(-c2nc(CS(=O)(=O)CC(=O)NCCC(C)C)c(C)o2)c1	4	-6	28	2	-16	0	-3	i
COCCNC(=O)C(c1ccccc1)N(CCOC)C(=O)Cn1nnc2ccccc21 (centres undefined)	-4	-2	-20	-11	.	-2	3	.
C=CCc1c(C)nc2c(OC)cccc2c1Cl	1	2	-31	7	-19	-6	-6	i
COCCn1c(SCc2ccc(OC)c(F)c2)nc2ccccc2c1=O	4	1	16	.	-5	-2	-1	i
CCC1(C)NC(=O)N(CC(=O)c2cc(C)n(C3CC3)c2C)C1=O (centres undefined)	.	.	-11	-11	.	5	3	.
Cc1ccc(S(=O)(=O)N2CCN(C(=O)CC3CCCC3)CC2)cc1	6	-8	.	.	3	-3	0	i
CCOC(=O)C1=C(c2ccccc2)N(C)C(=O)NC1c1ccc(OC(F)F)c(OC)c1 (centres undefined)	-6	1	.	20	.	-2	-4	i
CCc1ccc2nc(N(CCCN(C)C)C(=O)c3ccc(S(=O)(=O)N4CCCc5ccccc54)cc3)sc2c1	-19	-1	?	7	?	0	-6	i
CC(Oc1ccc(F)cc1)C(=O)Nc1cc(S(=O)(=O)N2CCCCC2)ccc1N1CCOCC1 (centres undefined)	.	.	23	.	-1	-2	-4	i
COc1ccc(/C=N/OCC(=O)Nc2ccc3c(c2)OCO3)c(OC)c1	-14	-9	-2	0	-4	1	-2	i
CC1CCC/C(=C\Nc2ccc(O)cc2)C1=O (centres undefined)	34	20	-23	-6	-7	16	17	i
CCN(CC1COc2ccccc2O1)C(=O)CN1C(=O)NC(C)(c2ccccc2)C1=O (centres undefined)	.	.	.	5	-2	0	1	.
CCCN(CCC)CCCNC(=O)c1cc2c(-c3ccc(OC)c(OC)c3)nn(C)c2s1	-7	6	-19	26	-3	9	0	i
C/C=C/C(=O)N1CC2(CC(c3cccc(NC(=O)CC)c3)=NO2)C[C@H]1C(N)=O (some centres undefined)	2	-9	-19	-12	-5	-1	4	i
NC(=O)c1cc(C(N)=O)nc(Cl)n1	1	-11	7	.	1	1	2	i
CS(=O)(=O)N1CCN(c2ccc(NC(=O)CSc3ccc(Cl)cc3)cc2)CC1	13	-5	-29	-13	-23	-1	-3	i
CCOc1ccc(NC(=O)CN(c2ccc(OCC)cc2)S(=O)(=O)c2c(C)[nH]c(=O)[nH]c2=O)cc1	3	9	2	.	.	5	8	i
COc1ccccc1Cn1c(C(C)C)nc2ccccc21	-2	-6	-15	-7	-4	0	-7	i
CCN(C(=O)CSc1nc2cc(Cl)ccc2c(=O)n1CC(C)C)C1CCS(=O)(=O)C1 (centres undefined)	.	.	2	-17	-10	0	-1	i
CCCCC1=CC2=CC(=O)C(C)(OC(=O)C3CCCC3)C(=O)C2=CO1 (centres undefined)	?	?	3	1	19	10	34	i
CCCn1c(SCC(=O)NCCc2ccccc2)nnc1-c1cccnc1	-6	-4	.	3	15	5	-1	i
O=C(Nc1nccs1)c1ccc(Br)o1	-3	-4	.	-12	-6	-2	4	i
C=CCn1cnc2scc(-c3ccccc3)c2c1=O	-14	-6	.	.	3	-1	3	i
CCOCCCNS(=O)(=O)c1ccc2c(c1)oc(=O)n2CC(=O)OCC	8	7	23	-4	-20	0	4	i
Cc1ccc(NC(=O)Cn2c(=O)c3cccn3c3ccccc32)cc1	1	6	-11	-12	16	2	5	i
O=C(Cn1ccc(C(F)(F)F)n1)N/N=C/c1ccc2c(c1)OCO2	15	10	-13	.	-1	-3	-2	i
Cc1ccc(-c2csc(/C=C3\SC(C)C(=O)N3CC(=O)Nc3ccccc3F)n2)cc1 (centres undefined)	-1	-3	-3	-6	19	-4	1	i
CC1CCCCC1NC(=O)C1CCN(C(=O)c2sccc2-n2cccc2)CC1 (centres undefined)	3	-2	-29	16	.	0	1	i
COc1ccccc1S(=O)(=O)Cc1ccc(C(=O)NC2CC2)o1	-12	-5	-6	-2	-4	-3	3	i
Cc1cccc(Cn2c(=O)n(Cc3ccco3)c(=O)c3ccccc32)c1	15	-1	.	-6	8	-5	-4	i
CCOc1ccc(Nc2nc(N)nc(CCl)n2)cc1	2	0	-138	-38	-2	1	-11	i
CC(C)Oc1ccc(C(CC(=O)O)NC(=O)Cc2ccc(Cl)cc2)cc1 (centres undefined)	-6	-7	2	-22	-4	-1	4	i
CCOc1ccc(CCNC(=O)C(C)N2C(=O)CC(C)(C)Sc3ccccc32)cc1 (centres undefined)	-2	-4	?	8	-7	-8	-4	i
CCCCN1CCC(CN2C(=S)NC[C@@H]2CC(C)C)CC1	.	.	-8	-17	.	0	1	.
COc1cc(/C=N/N(C)c2ccccc2)cc(Cl)c1O	10	6	-53	-23	56	1	-2	i
O=C(/C=C/c1cccc([N+](=O)[O-])c1)c1ccc([N+](=O)[O-])o1	.	.	56*	-19	42	-3	-31	i
O=C(CSc1nc2ccccc2c(=O)n1-c1ccc(OC(F)F)cc1)NC1CC1	.	.	5	-12	6	0	0	.
Further records follow.
SMILES	PABP polyA inh	eIF4H inh	Env fusion inh	Yeast UUG start	CSC inhib	MT1-MMP act inh	MT1-MMP act inh RFP	Rce1 inh
O=C(c1ccc2ncsc2c1)N1CCN(c2nc3ccccc3s2)CC1	2	-9	76*	5	-8	-5	-22	i
COc1ccc(OC(C)C(=O)N2CCN(c3ccccn3)CC2)cc1 (centres undefined)	-15	-10	-24	-15	-9	4	2	i
O=C(Cc1ccc2c(c1)CCCC2)Nc1ccccc1Cl	-3	-2	.	25	6	0	-10	i
CC1(C(=O)NCc2cccc(Cl)c2)Cc2c(-c3ccc(C(N)=O)cc3)ccnc2O1 (centres undefined)	.	.	14	14	.	-2	-9	.
COc1cc(-c2nc3n(n2)C(c2ccncc2)C(C(N)=O)=C(C)N3)cc(OC)c1OC (centres undefined)	-3	11	-6	-16	-7	7	5	i
Cc1nc2ccc(NC(=O)N3CCCCC3)cc2nc1C	-2	-1	.	7	-16	2	4	i
COC(=O)Nc1ccccc1C(=O)N1CCC(O)(c2ccc(Cl)cc2)CC1	18	3	.	-3	-12	-2	2	i
CC1(c2ccccc2)NC(=O)N(CC(=O)Nc2ccc(N3CCOCC3)cc2N2CCOCC2)C1=O (centres undefined)	.	.	-1	7	-1	-1	-2	i
Cc1ccc(S(=O)(=O)N(c2nc(NC(C)C)nc(NC(C)C)n2)n2cnnc2)cc1	12	-1	.	-19	-3	2	2	i
COc1ccc(/C=C(/NC(=O)/C=C/c2ccccc2)C(=O)O)cc1	-9	-2	13	.	.	-4	1	i
Cc1ccc(S(=O)(=O)N2CCN(C(=O)CNC(=O)c3sc4ccccc4c3Cl)CC2)cc1	.	.	13	-22	.	1	-1	i
O=C(Nc1ccccc1C(F)(F)F)C1CC(=O)N(c2ccccc2F)C1 (centres undefined)	5	-3	-21	.	-7	3	4	i
CC(C)NC(=O)c1cccc2c1-c1ccccc1C2=O	4	3	-8	-16	-18	1	2	i
COc1ccc2c(c1)-c1c(ssc1=S)C(C)(C)N2	10	14	62*	-17	9	-12	-14	i
NNC(=O)c1csc(Cc2c(Cl)sc3ccc(Cl)cc23)n1	-3	-6	-5	-18	-1	3	-1	i
C=CCn1c(CSc2nc3ccccc3s2)n[nH]c1=S	2	2	.	.	5	-1	1	i
c1ccc(-c2cn3cccnc3n2)cc1	7	-4	.	-12	-2	3	0	?
O=C(CSc1nc2ccccc2c(=O)n1Cc1ccco1)c1ccc(F)cc1	0	-13	58*	-12	-1	-8	-15	i
Cc1nc2ccc(Nc3nc4cc(S(=O)(=O)N5CCOCC5)ccc4o3)cc2s1	14	-4	-24	49	15	-3	-3	i
CCOC(=O)c1cc(NC(=O)c2ccccc2)c(=O)n2c1oc1ccccc12	-4	12	-16	.	-4	1	1	i
N=C1CCC(=N)c2c1c(O)c1ccccc1c2O	?	?	.	.	4	48	58	i
